PKD1 kinase inh: PKD1 (human) kinase inhibition. 0.056% of 200,000 active. inhibition, %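 (about 10 µM by stock and volumes)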. PKD1 kinase fluorescence polarization assay. AID 797. Q15139;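 active = inhibition of 50% or more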;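 also: controls were vehicle for no effect and a reference inhibitor for full effect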
HSV augment: increases HSV replication in cells; HSV replication augmentation in cells, fold increase; maximum fold increase; 0.005% of 220,000 active; AID 1956;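 active = peak rise of 1.5-fold or more in the series; inconclusive = self-fluorescent or not available for retest; tested in PC3 cells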;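 also: first round at 10 µM; read as green reporter fluorescence; hits show the peak of a series up to 25 µM; 1 = signal of infected wells without compound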
RGS16-Gao HTS: RGS16-Galphao interaction regulator (human); O15492+P09471; bead-based flow cytometry RGS16-Galphao binding, fluorescence; actives lie on both sides; binding response (% of control), % at 10 µM; 0.38% of 220,000 active;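 active = below 25% or above 175%, edge rows of some plates excepted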;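 also: Galphao activated by GDP with aluminum fluoride before binding; 100% = wells without compound and 0% = beads without RGS; some results beyond the cut were filed as inactive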
Target sequence (O15492 whole entry, looked up): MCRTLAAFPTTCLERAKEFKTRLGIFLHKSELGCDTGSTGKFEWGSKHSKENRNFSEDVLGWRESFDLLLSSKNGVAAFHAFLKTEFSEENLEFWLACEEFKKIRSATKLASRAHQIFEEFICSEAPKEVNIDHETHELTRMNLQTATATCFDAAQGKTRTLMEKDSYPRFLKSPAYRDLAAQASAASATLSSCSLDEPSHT
Target sequence (P09471 whole entry, looked up): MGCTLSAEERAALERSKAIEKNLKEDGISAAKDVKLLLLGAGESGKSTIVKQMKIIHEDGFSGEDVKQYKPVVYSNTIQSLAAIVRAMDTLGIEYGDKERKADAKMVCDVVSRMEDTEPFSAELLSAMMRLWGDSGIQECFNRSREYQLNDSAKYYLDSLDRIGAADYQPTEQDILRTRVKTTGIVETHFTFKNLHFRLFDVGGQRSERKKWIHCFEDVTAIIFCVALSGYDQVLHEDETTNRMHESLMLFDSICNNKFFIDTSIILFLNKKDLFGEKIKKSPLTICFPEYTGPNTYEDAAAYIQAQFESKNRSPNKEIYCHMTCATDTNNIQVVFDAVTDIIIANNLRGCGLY
INS promoter inh: TRM-6 insulin promoter activity inhibition; TRM-6 cells (human fetal islet line), insulin promoter-eGFP reporter, imaging; reporter expression induced with tamoxifen; inhibition, % at 2 µM; 0.9% of 130,000 active; AID 1273;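 active = inhibition above the mean plus 3 SD, with well images judged a real hit on visual review, cut at about 60% in these data, passing the limit was not always enough; inconclusive = inhibition over the cutoff but images rejected on review; inactive = inhibition not above the cutoff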
GALR2 agonist: activates the human galanin receptor 2. O43603. GALR2-expressing cells, agonist activation read-out. activation, %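 (tested at 5 µM)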. 0.48% of 140,000 active;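 active = above mean plus 3 SD of all compounds, about 5% in these data, not always enough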;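 also: 0% = vehicle buffer wells and 100% = reference agonist at full effect; tested in CHO reporter cells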
Target sequence (O43603 whole entry, looked up): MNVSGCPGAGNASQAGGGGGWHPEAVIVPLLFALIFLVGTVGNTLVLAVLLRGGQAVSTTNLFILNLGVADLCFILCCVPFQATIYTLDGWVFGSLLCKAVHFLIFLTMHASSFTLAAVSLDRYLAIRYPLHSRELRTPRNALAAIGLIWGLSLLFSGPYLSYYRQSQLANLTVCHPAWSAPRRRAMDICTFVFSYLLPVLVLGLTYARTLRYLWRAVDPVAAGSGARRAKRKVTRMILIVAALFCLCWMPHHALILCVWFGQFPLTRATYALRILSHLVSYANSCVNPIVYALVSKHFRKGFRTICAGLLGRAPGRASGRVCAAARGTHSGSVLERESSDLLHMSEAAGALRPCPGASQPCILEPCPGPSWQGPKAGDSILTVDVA
INS promoter inh cell count: further read-out of INS promoter inh, marked with its call; normalized cell count, %; measured here: cell count, toxicity; reference of the scale not given here;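 cells exposed to compound for 48 h; stained nuclei by imaging scaled within each plate; lower means fewer cells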
HSV augment primary fold: recorded beside HSV augment, whose call it bears; fold increase; compound at 10 µM; measured here: primary screen fold increase 10 uM; tested in PC3 cells;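 GFP signal in the first replicate; 1 = infected wells without compound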
An asterisk follows results filed as active; i = inactive; ? = inconclusive; nt = not tested or not shown.

SMILES	PKD1 kinase inh	HSV augment	HSV augment primary fold	RGS16-Gao HTS	INS promoter inh	INS promoter inh cell count	GALR2 agonist
Cc1cc(C)c2c3c(cn2n1)c(=O)n(C)c(=O)n3C	-4	i	1.1	nt	31	71	-2.5
COc1ccc(N2C(=O)C3CC(C)=C(C)CC3C2=O)c(OC)c1 (stereo unspecified)	-6	i	0.95	105	22	115	-1.1
CC(=O)Nc1ccc(S(=O)(=O)Nc2ccc(-c3ccc4nnc(C)n4n3)cc2)cc1	-6	i	0.86	98	-3	126	nt
Cc1ccc2c(c1)C(=O)CC1(CCCCCC1)O2	nt	i	1.2	104	nt	nt	nt
CCCCOc1ccc(CSc2nncn2N)cc1	-1	i	0.97	99	-27	101	-1.4
O=c1cc2oc3cc(O)c(O)cc3c(-c3ccccc3O)c-2cc1O	nt	?	nt	86	nt	nt	nt
CCCOC(=O)CCCCCCCCC(O)CN1CCCCC1 (stereo unspecified)	-2	i	1.1	99	0	127	nt
CC(C)(C)c1ccc(OC(=O)CN2C(=O)C3C4CCC(C4)C3C2=O)cc1 (stereo unspecified)	-2	i	1	92	-33	99	-1.8
Cc1[nH]c2ccccc2c1CCC(N)=O	-6	i	1.1	99	nt	nt	-3.4
COCCNC(=O)c1c(C)cc(C)cc1C	3	i	0.88	98	nt	nt	nt
Cc1ccc(N2CC(C(=O)N/N=C/c3sccc3C)CC2=O)cc1 (stereo unspecified)	6	i	0.89	102	16	92	-0.7
COc1ccccc1N1CCN(Cc2ccco2)CC1	0	i	0.75	120	7	149	-0.8
CCNC(=O)N1CCNC(=O)C1CC(=O)Nc1ccc(C(=O)OCC)cc1 (stereo unspecified)	-6	i	1.2	106	7	87	0.1
CCOc1nnc(C)c2c(C)n(-c3ccc(Cl)cc3)nc12	-15	i	1	101	46	140	-2.7
S=c1[nH]nc(-c2ccncc2)n1CC1CCCO1 (stereo unspecified)	-18	i	1.1	93	12	105	-2.2
Cc1nn(Cc2c(Cl)cccc2Cl)c(C)c1C(=O)NCc1ccc(C)n1C	-5	i	1	73	15	47	-0.5
O=C(N/N=C/c1ccccn1)c1cc(-c2ccccc2)nc2ccccc12	nt	i	0.91	96	nt	nt	nt
O=C1CC(c2ccc(F)cc2)CC(O)=C1C=NCCN1CCN(C(=O)Nc2ccccc2)CC1 (stereo unspecified)	-20	i	0.97	101	-36	60	0.6
O=C(Nc1sc2c(c1C(=O)O)CCC2)c1ccco1	-5	i	0.75	108	13	79	0.0
CC(C)C(=O)n1nc(-c2cccnc2)nc1NCc1ccc(F)cc1	0	i	1.1	103	nt	nt	nt
COc1cccc(-c2nnc3sc(-c4cccs4)nn23)c1	-1	i	0.92	98	11	92	-1.4
COc1cc(NC(=O)CSCC(=O)Nc2cc(OC)cc(OC)c2)cc(OC)c1	nt	i	1	95	nt	nt	nt
CCOC(=O)/C=C/S(=O)(=O)c1ccc(NC(C)=O)cc1	-1	i	0.84	97	-188	15	-3.2
CCOC(=O)C1(Cc2ccccc2C(F)(F)F)CCN(C(C)COC)CC1 (stereo unspecified)	5	i	1	104	nt	nt	nt
Cc1ccc(NC(=O)NN(C)c2c(Cl)c(Cl)nn2C)cc1	-3	i	0.88	113	27	38	nt
CCOc1ccc(C(=O)NC(=S)Nc2ccc(N3CCC(C)CC3)cc2)cc1[N+](=O)[O-]	3	i	0.91	nt	nt	nt	-2.3
COc1cc2c(cc1OC)CN(C(=O)c1sccc1C)CC2	nt	i	0.95	105	nt	nt	nt
COc1ccc(/C=C/C(=O)N(Cc2ccccc2)c2ccccn2)cc1OC	-5	i	0.86	120	nt	nt	nt
Cc1nn(Cc2ccccc2)c(C)c1N	-3	i	1	38	-17	68	-1.2
Cc1ccc(SCC(=O)NC(C)(C)C)cc1	1	i	0.83	100	-34	102	-1.4
COCCOC(=O)C1=C(C)NC(=O)NC1c1c(Cl)nc2c(C)cccn2c1=O (stereo unspecified)	-9	i	1.9	99	-4	138	0.7
C(=N\N1CCN(C2c3ccccc3-c3ccccc32)CC1)/c1cccs1	-4	i	0.95	113	-6	102	-3.0
O=C(N/N=C/c1cccc([N+](=O)[O-])c1)C1CC(=O)N(c2ccc(Br)cc2)C1 (stereo unspecified)	0	i	1.1	99	nt	nt	0.0
CC(C)c1nc2ccc(NC(=O)C34CC5CC(CC(C5)C3)C4)cc2[nH]1	8	i	0.87	103	23	158	1.0
CC(=O)Nc1ccc(C(=O)NNC(=O)c2cccs2)cc1	-6	i	1.1	76	23	68	-1.6
COc1ccccc1Cn1[nH]nnc1=S	nt	i	0.91	90	nt	nt	nt
CCCCc1nc(NCCNC(=O)c2ccccc2)c(C#N)c2c1CSC(C)(C)C2	0	i	0.94	102	-31	76	-0.9
Nc1nnc(N2CCCCC2)s1	-2	i	1.1	104	22	161	-2.6
CCC(CC)C(=O)N1CCN(Cc2ccc3c(c2)OCO3)CC1	-4	i	1.1	106	-13	119	0.0
CCOc1ccccc1NC(=O)NC1(C(=O)N2CCOCC2)CCCCC1	1	i	1.1	105	nt	nt	-0.7
O=C(COc1cccc(F)c1)N[C@@H](Cc1ccccc1)c1nc2ccccc2[nH]1	0	i	0.98	98	nt	nt	-0.8
O=S(=O)(NCc1csc(-c2cccs2)n1)c1ccc(Cl)cc1	nt	i	0.92	105	nt	nt	nt
COc1ccc(CN(C(=O)c2cccs2)c2ccccc2)cc1	8	i	0.95	106	nt	nt	nt
O=C(C1=C[C@@H](c2coc3ccccc3c2=O)C[C@@H](OCCCCO)O1)N1CCOCC1	-5	i	0.99	102	nt	nt	nt
COc1ccc(NC(=O)CSc2nnc(-c3cccs3)n2-c2ccccc2)cc1	-6	i	1	99	nt	nt	-0.3

Structures above that contain two or more sulfur atoms (3):
SMILES	PKD1 kinase inh	HSV augment	HSV augment primary fold	RGS16-Gao HTS	INS promoter inh	INS promoter inh cell count	GALR2 agonist
COc1cccc(-c2nnc3sc(-c4cccs4)nn23)c1	-1	i	0.92	98	11	92	-1.4
O=S(=O)(NCc1csc(-c2cccs2)n1)c1ccc(Cl)cc1	nt	i	0.92	105	nt	nt	nt
COc1ccc(NC(=O)CSc2nnc(-c3cccs3)n2-c2ccccc2)cc1	-6	i	1	99	nt	nt	-0.3

The results go on.
SMILES	PKD1 kinase inh	HSV augment	HSV augment primary fold	RGS16-Gao HTS	INS promoter inh	INS promoter inh cell count	GALR2 agonist
Cc1occc1C(=O)N/N=C/c1ccc(Br)s1	-3	i	1	101	nt	nt	nt
CC1(C)CC(=O)c2cc3c(N)c(C(=O)NCc4ccccc4)sc3nc2C1	0	i	0.93	106	-47	119	-0.6
COc1ccc2c(c1)[nH]c1c(=O)n(N)cnc12	10	i	1	117	3	74	-1.1
CN(C)/C=C1\N=C(c2cccs2)OC1=O	-8	i	0.9	101	-36	45	0.6
COc1cc(NC(=O)Cn2cnc3sc(C)c(S(=O)(=O)N4CCN(C)CC4)c3c2=O)cc(OC)c1OC	-6	i	1.1	100	nt	nt	nt
CNC(=S)N=Nc1c(O)[nH]c2ccccc12	1	i	0.92	101	-8	80	-1.3
CCC(C)NC(=O)Nc1ccc2c(c1)N(C)C(=O)c1ccccc1S2 (stereo unspecified)	-4	i	1.1	95	1	78	-2.9
CCOC(=O)c1nn(-c2ccc(Cl)cc2)c2nnc(Cc3ccc(C)cc3)c(=O)n12	14	i	1	119	0	54	-0.9
COc1ccc2[nH]c(C)c(CCNC(=S)Nc3ccccc3OC)c2c1	-7	i	0.96	110	-18	111	nt
CCOC(=O)CCCCC(=O)c1[nH]c(=O)[nH]c1CSc1nc(C)cc(C)n1	-1	i	0.95	101	-64	83	-0.6
COc1cc2c(cc1OC)C(C(=O)N1CCN(c3ccccn3)CC1)C(c1cccs1)N(C)C2=O (stereo unspecified)	3	nt	nt	104	0	182	-1.8
COc1ccccc1-c1nnc(SCC(=O)NCc2c(C)c(Cl)cc(C(C)C)c2O)o1	-10	nt	nt	99	5	101	-0.8
N/C(Cc1ccc([N+](=O)[O-])cc1)=N\OC(=O)c1ccccc1Br	-5	i	0.9	104	-3	106	-1.7
Cc1[nH]ncc1N=Cc1ccc([N+](=O)[O-])cc1	-8	i	0.92	94	44	83	-1.0
CNc1cc([N+](=O)[O-])ccc1OCc1ccccc1	nt	i	0.98	106	nt	nt	nt
CCCn1c(CN2CCCCC2C)nc2c1c(=O)n(C)c(=O)n2C (stereo unspecified)	-17	i	0.62	101	nt	nt	-0.8
O=C(Nc1ccccc1Cl)c1ccn[nH]1	-7	i	0.98	98	29	59	-1.2
COc1ccc(CCN=C(N)NS(=O)(=O)c2ccc(C)cc2)cc1OC	0	i	1	105	13	86	nt
CN(C)Cc1c(O)ccc2c3c(c(=O)oc12)CCCCC3	-4	i	0.98	99	25	143	5.4
COc1ccc(C2=NOC(C(=O)Nc3cccnc3Cl)C2)cc1 (stereo unspecified)	0	i	0.96	105	nt	nt	nt
COC(=O)c1ccc(CSc2nc3ccccc3c(=O)n2Cc2ccco2)o1	1	i	0.77	43	-16	91	-1.6
O=S(=O)(NCc1ccccc1)c1ccc(F)cc1Br	nt	i	0.41	102	nt	nt	nt
Cc1cc(OCCOCCNC(C)C)cc(C)c1Cl	5	nt	nt	70	nt	nt	-2.5
O=C1N(c2ccccc2)C[C@@H]2C[C@@H](c3cccs3)N3CCC[C@@]123	-6	i	0.83	107	nt	nt	nt
CCN(CC)c1ccc(NC(=O)COC(=O)c2cccs2)cc1	0	nt	nt	96	nt	nt	-2.2
CCOC(=O)c1cnc(SC2CCc3ccccc3C2=O)nc1N (stereo unspecified)	17	i	0.99	157	nt	nt	-2.9
O=C(COC(=O)c1ccc(S(=O)(=O)Nc2ccccc2)cc1)NCc1ccco1	5	i	0.87	106	14	78	-1.6
O=C(NCc1ccccc1Cl)c1ccc(Cn2cc(C(F)(F)F)ccc2=O)cc1	2	i	0.9	102	-4	121	-3.0
Cc1ccc(C2C3=C(NCCN=C3c3ccccc3)C(=O)N2c2ccccc2)cc1 (stereo unspecified)	-4	i	0.97	101	-10	150	-2.3
O=C(Nc1ccc(Cl)c(S(=O)(=O)N2CCOCC2)c1)c1ccc(OCC2CCCO2)cc1 (stereo unspecified)	-6	i	0.59	99	nt	nt	nt

Profiles, quoted from the list. Order of values: PKD1 kinase inh | HSV augment | HSV augment primary fold | RGS16-Gao HTS | INS promoter inh | INS promoter inh cell count | GALR2 agonist
O=C(COC(=O)c1ccc(S(=O)(=O)Nc2ccccc2)cc1)NCc1ccco1 reads 5 | i | 0.87 | 106 | 14 | 78 | -1.6
O=C1N(c2ccccc2)C[C@@H]2C[C@@H](c3cccs3)N3CCC[C@@]123 reads -6 | i | 0.83 | 107 | nt | nt | nt
O=C(Nc1ccccc1Cl)c1ccn[nH]1 reads -7 | i | 0.98 | 98 | 29 | 59 | -1.2

Remaining list, next part.
SMILES	PKD1 kinase inh	HSV augment	HSV augment primary fold	RGS16-Gao HTS	INS promoter inh	INS promoter inh cell count	GALR2 agonist
CCn1c(NC(=O)C(C)C)c2ccccc2nc1=O	-1	i	0.97	87	nt	nt	nt
O=C(NCc1ccccc1)c1cccc(COc2ccccc2Cl)c1	2	nt	nt	98	nt	nt	-0.1
COc1ccccc1/C=N\Nc1cc(C)nc(-n2nc(C)cc2C)n1	2	i	0.76	107	nt	nt	-1.3
CCCn1c(=O)c(C(=O)NCc2ccc(OC)c(OC)c2)c(O)c2ccccc21	2	i	0.87	90	nt	nt	-1.5
Cc1cnc(N2C(=O)c3ccc([N+](=O)[O-])cc3C2=O)s1	-1	i	0.94	100	nt	nt	nt
S=c1[nH]c(-c2ccccc2)cn1/N=C/c1ccncc1	nt	i	1.1	97	nt	nt	nt
COc1ccc(/C=N/NC(=O)c2cccc(NC(=O)c3ccccc3)c2)c(C(=O)O)c1OC	-6	i	1	102	20	183	-1.4
Cc1ccc(NC(=O)Cn2c3ccc(F)cc3c3nc4n(c(=O)c32)CCS4)cc1F	2	i	0.9	91	12	122	nt
O=c1[nH][nH]cc1C=Nc1ccccc1Cl	-1	i	0.9	102	nt	nt	nt
O=C(NC1C=CS(=O)(=O)C1)c1sc2ccccc2c1Cl (stereo unspecified)	-8	i	0.58	91	-162	70	-0.9
COc1nsnc1NS(=O)(=O)c1ccc(NC(=S)NC(=O)c2ccncc2)cc1	nt	i	0.97	99	nt	nt	nt
CCOC(=O)c1sc2nc3c(cc2c1N)COC(C)(CC)C3 (stereo unspecified)	-4	i	0.77	99	3	212	-0.1
COC(=O)N/N=C/c1ccc([N+](=O)[O-])o1	-2	i	0.77	93	-24	109	-1.6
COCCn1c(C)cc(C(=O)CSc2nc3ccccc3c(=O)n2Cc2ccco2)c1C	-6	i	0.86	105	-27	135	-0.3
CCC(=O)Oc1ccc(-c2cnc3ccccc3n2)cc1	6	i	0.97	93	nt	nt	-3.1
CCOc1ccc(OCCOc2cccc(C(F)(F)F)c2)cc1	8	i	0.75	101	nt	nt	-1.6

Compound activity from PubChem.
